Bioassay records as filed in PubChem BioAssay.
Env fusion inh = blocks HIV Env-driven cell-cell fusion. HeLa-JRFL Env/CEM21 cell fusion, luciferase. inhibition, % at 12.3 µM. 1.1% of 360,000 active;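 active = mean replicate inhibition score of at least 50 and every replicate individually at or above 50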;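 also: 0% = plate neutral controls and 100% = maraviroc near 300 nM; one replicate is shown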
Yeast UUG start = yeast start codon fidelity modulation | S. cerevisiae UUG-firefly luciferase reporter, luminescence/redox ratio | activity score, % at 18.7 µM | 0.13% of 350,000 active | AID 602363;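 active = replicate mean at a twofold rise or more, about +100% in these data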;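 also: firefly luciferase made from a UUG start codon reports start codon fidelity; reporter light over untreated wells divided by growth signal over untreated wells; some hits fall short of that in this replicate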
The depositor's hits bear a star; [ ] = remark or other dose.

SMILES	Env fusion inh	Yeast UUG start
CC(C)C#Cc1ccc2c(c1)O[C@@H](CN(C)S(C)(=O)=O)[C@@H](C)CN([C@H](C)CO)S2(=O)=O	-12[16.7 µM]	38
COc1ccc(NC(=O)N(C)C[C@H]2OCCCC[C@H](C)Oc3ccc(NS(=O)(=O)c4c(C)noc4C)cc3C(=O)N([C@@H](C)CO)C[C@@H]2C)cc1	-19[16.7 µM]	37
C[C@@H]1CN([C@@H](C)CO)C(=O)Cc2cc(NC(=O)Cc3ccccc3)ccc2O[C@H]1CN(C)Cc1ccccc1	8[16.7 µM]	3
COc1ccc(S(=O)(=O)N2C[C@@H](O)COC[C@@H]3O[C@@H](CC(=O)N[C@@H]4CCN(Cc5ccccc5)C4)CC[C@H]32)cc1	-152[16.7 µM]	1
O=C(C[C@@H]1C=C[C@H](NC(=O)CN2CCOCC2)[C@H](CO)O1)NCCc1ccccc1	-15[16.7 µM]	-5
C[C@@H]1CN([C@H](C)CO)C(=O)c2cc(NC(=O)CCCCCC(=O)Nc3ccccc3N)ccc2O[C@H]1CN(C)S(C)(=O)=O	-99[16.7 µM]	-9
Cc1ccc(S(=O)(=O)N(C)C[C@H]2OCCCC[C@@H](C)Oc3ccc(NC(=O)CCC(F)(F)F)cc3C(=O)N([C@H](C)CO)C[C@@H]2C)cc1	26[16.7 µM]	-2
O=C(C[C@H]1C[C@H]2c3cc(NC(=O)C4CCOCC4)ccc3O[C@H]2[C@@H](CO)O1)NCCc1ccccc1	27[16.7 µM]	3
O=C(C[C@@H]1CC[C@@H](NC(=O)c2ccc(F)cc2)[C@H](CO)O1)NCCc1ccncc1	7[16.7 µM]	-9
CCCN(C)C[C@H]1Oc2ncc(C#CCN(C)C)cc2C(=O)N([C@@H](C)CO)C[C@@H]1C	2[16.7 µM]	14
C[C@H]1CN([C@@H](C)CO)C(=O)c2cc(NC(=O)Cc3cn(C)c4ccccc34)ccc2O[C@@H]1CN(C)C(=O)Nc1ccccc1	8[16.7 µM]	2
Cc1noc(C)c1NC(=O)N(C)C[C@H]1OCCCC[C@H](C)Oc2ccc(NC(=O)NC3CCCCC3)cc2C(=O)N([C@H](C)CO)C[C@@H]1C	-23[16.7 µM]	6
C[C@@H]1CN([C@H](C)CO)C(=O)Cc2cc(NS(=O)(=O)c3ccccc3)ccc2O[C@H]1CN(C)S(=O)(=O)c1cccs1	0[16.7 µM]	22
C[C@H](CO)N1C[C@H](C)[C@H](CN(C)Cc2ccc(C(=O)O)cc2)Oc2ccc(NS(C)(=O)=O)cc2CC1=O	16[16.7 µM]	-16
CCC(=O)N(C)C[C@@H]1Oc2cc(C#C[C@@H](C)O)ccc2S(=O)(=O)N([C@@H](C)CO)C[C@@H]1C	-8[16.7 µM]	3
COc1cccc(S(=O)(=O)N[C@H]2CC[C@H](CCn3cc(-c4ccccn4)nn3)O[C@H]2CO)c1	0[16.7 µM]	-1
COc1cccc(S(=O)(=O)Nc2ccc3c(c2)[C@H]2C[C@@H](CC(=O)N[C@@H](C)c4ccccc4)O[C@H](CO)[C@H]2O3)c1	4[16.7 µM]	7
C[C@@H]1CCCCO[C@@H](CN(C)C(=O)Nc2cccc3ccccc23)[C@H](C)CN([C@@H](C)CO)C(=O)c2cc(NS(=O)(=O)c3cccs3)ccc2O1	12[16.7 µM]	-3
Cc1ccc(S(=O)(=O)N(C)C[C@@H]2OCCCC[C@H](C)Oc3ccc(NC(=O)CCCCCC(=O)Nc4ccccc4N)cc3C(=O)N([C@H](C)CO)C[C@@H]2C)cc1	13[16.7 µM]	-8
O=C(C[C@@H]1CC[C@H]2[C@@H](COC[C@@H](O)CN2S(=O)(=O)c2ccccc2)O1)N1CCOCC1	-9[16.7 µM]	-5
C[C@H](CO)N1C[C@H](C)[C@H](CN(C)S(=O)(=O)c2ccccc2)Oc2c(NS(=O)(=O)c3ccc(Cl)cc3)cccc2C1=O	-1[16.7 µM]	3
Cc1ccc(S(=O)(=O)N[C@H]2CC[C@@H](CCNC(=O)C3CC3)O[C@H]2CO)cc1	-11[16.7 µM]	3
C[C@@H]1CN([C@H](C)CO)C(=O)c2cc(C#Cc3ccccc3)cnc2O[C@@H]1CN(C)S(=O)(=O)c1ccccc1F	21[16.7 µM]	0
CC(C)CC#Cc1ccc2c(c1)O[C@H](CN(C)C(=O)C1CCC1)[C@@H](C)CN([C@@H](C)CO)S2(=O)=O	31[16.7 µM]	37
C[C@@H]1CN([C@H](C)CO)C(=O)c2cc(/C=C/c3ccccc3)cnc2O[C@H]1CN(C)C(=O)C1CCC1	0[16.7 µM]	6
COc1ccc(NC(=O)Nc2cccc3c2O[C@@H](CN(C)S(=O)(=O)c2cn(C)cn2)[C@@H](C)CN([C@@H](C)CO)C3=O)cc1	-12[16.7 µM]	-5
C[C@@H]1CN([C@H](C)CO)C(=O)Cc2cc(NC(=O)Nc3cccc4ccccc34)ccc2O[C@H]1CN(C)Cc1ccc(Cl)c(Cl)c1	-8[16.7 µM]	3
C[C@H]1CN([C@@H](C)CO)C(=O)c2cccc(NS(=O)(=O)c3ccc(F)cc3)c2O[C@H]1CN(C)S(=O)(=O)c1ccc(F)cc1	-8[16.7 µM]	2
CC(C)C#Cc1cnc2c(c1)C(=O)N([C@@H](C)CO)C[C@@H](C)[C@H](CN(C)C(=O)Nc1cccc(F)c1)O2	8[16.7 µM]	10
CCCNC(=O)Nc1ccc2c(c1)OC[C@@H](C)N(CCC)C[C@H](C)[C@H](OC)CN(C)C2=O	-22[16.7 µM]	-6

Compound profiles, as listed above. Screens in order: Env fusion inh	Yeast UUG start
Shown for O=C(C[C@@H]1CC[C@H]2[C@@H](COC[C@@H](O)CN2S(=O)(=O)c2ccccc2)O1)N1CCOCC1 = -9[16.7 µM]	-5
Shown for CC(C)CC#Cc1ccc2c(c1)O[C@H](CN(C)C(=O)C1CCC1)[C@@H](C)CN([C@@H](C)CO)S2(=O)=O = 31[16.7 µM]	37
Shown for C[C@@H]1CN([C@H](C)CO)C(=O)c2cc(C#Cc3ccccc3)cnc2O[C@@H]1CN(C)S(=O)(=O)c1ccccc1F = 21[16.7 µM]	0
Shown for COc1ccc(NC(=O)Nc2cccc3c2O[C@@H](CN(C)S(=O)(=O)c2cn(C)cn2)[C@@H](C)CN([C@@H](C)CO)C3=O)cc1 = -12[16.7 µM]	-5
Shown for C[C@@H]1CCCCO[C@@H](CN(C)C(=O)Nc2cccc3ccccc23)[C@H](C)CN([C@@H](C)CO)C(=O)c2cc(NS(=O)(=O)c3cccs3)ccc2O1 = 12[16.7 µM]	-3

Three successive compounds out of the list so far:
SMILES	Env fusion inh	Yeast UUG start
C[C@H]1CN([C@@H](C)CO)C(=O)c2cccc(NS(=O)(=O)c3ccc(F)cc3)c2O[C@H]1CN(C)S(=O)(=O)c1ccc(F)cc1	-8[16.7 µM]	2
CC(C)C#Cc1cnc2c(c1)C(=O)N([C@@H](C)CO)C[C@@H](C)[C@H](CN(C)C(=O)Nc1cccc(F)c1)O2	8[16.7 µM]	10
CCCNC(=O)Nc1ccc2c(c1)OC[C@@H](C)N(CCC)C[C@H](C)[C@H](OC)CN(C)C2=O	-22[16.7 µM]	-6

(listing goes on)
SMILES	Env fusion inh	Yeast UUG start
COc1cccc(S(=O)(=O)Nc2ccc3c(c2)C(=O)N(C)C[C@H](OC)[C@@H](C)CN[C@@H](C)CO3)c1	17[16.7 µM]	-2
C[C@H](CO)N1C[C@H](C)[C@H](CN(C)C(=O)Nc2ccc(F)cc2)Oc2ncc(C#Cc3ccc(F)cc3)cc2C1=O	-12[16.7 µM]	-3
Cc1noc(C)c1S(=O)(=O)N(C)C[C@H]1Oc2ccc(NC(=O)Cc3ccccc3)cc2CC(=O)N([C@H](C)CO)C[C@@H]1C	-2[16.7 µM]	10
O=C(N[C@H]1CC[C@H](CCn2cc(C3(O)CCCC3)nn2)O[C@@H]1CO)C1CCC1	24[16.7 µM]	-8
N#C[C@@H]1[C@H](c2ccc(-c3ccccc3F)cc2)[C@H](CO)N1C(=O)C1CCC1	6[16.7 µM]	-2
COc1cccc(-c2cn(CC[C@H]3CC[C@H](NC(C)=O)[C@H](CO)O3)nn2)c1	3[16.7 µM]	0
C[C@H](CO)N1C[C@H](C)[C@H](CN(C)C(=O)Nc2ccccc2F)Oc2cc(-c3ccc(F)cc3)ccc2S1(=O)=O	-21[16.7 µM]	7
CCNC(=O)C[C@H]1CC[C@H]2[C@@H](COc3ccc(NC(=O)c4cc(C)on4)cc3C(=O)N2C)O1	19[16.7 µM]	-6
COc1ccc(C#Cc2cnc3c(c2)C(=O)N([C@H](C)CO)C[C@H](C)[C@H](CN(C)C(=O)CN(C)C)O3)cc1	8[16.7 µM]	-6
COc1ccc(NC(=O)Nc2ccc3c(c2)C(=O)N([C@@H](C)CO)C[C@@H](C)[C@H](CN(C)C(=O)Nc2cccc4ccccc24)OCCCC[C@@H](C)O3)cc1	18[16.7 µM]	2
CC(C)C#Cc1ccc2c(c1)O[C@H](CN(C)C(=O)Nc1ccccc1)[C@@H](C)CN([C@@H](C)CO)S2(=O)=O	-10[16.7 µM]	2
C[C@@H]1CN([C@@H](C)CO)S(=O)(=O)c2ccc(C#CC3CC3)cc2O[C@@H]1CN(C)C(=O)Cc1ccncc1	-1[16.7 µM]	-6
CNC(=O)C[C@@H]1CC[C@H]2[C@H](COc3ccc(NC(=O)Nc4cccc(F)c4)cc3C(=O)N2C)O1	-8[16.7 µM]	11
C[C@H](CO)N1C[C@H](C)[C@@H](CN(C)Cc2ccc(C(=O)Nc3ccccc3N)cc2)Oc2ccc(NS(=O)(=O)c3ccc(F)cc3)cc2C1=O	21[16.7 µM]	-5
CNC[C@@H]1Oc2cc(C#Cc3cccc(OC)c3)ccc2S(=O)(=O)N([C@@H](C)CO)C[C@H]1C	-48[16.7 µM]	21
C[C@H]1CN([C@@H](C)CO)C(=O)c2cccc(NS(=O)(=O)c3ccc(Cl)cc3)c2O[C@H]1CN(C)Cc1ccc(C(F)(F)F)cc1	-21[16.7 µM]	-4
O=C(CCN1CCCCC1)NCC[C@@H]1CC[C@H](NC(=O)C2CCCC2)[C@@H](CO)O1	-4[16.7 µM]	3
C[C@@H]1CCCCO[C@H](CN(C)C(=O)Cc2ccccc2)[C@@H](C)CN([C@@H](C)CO)C(=O)c2cc(NC(=O)Nc3ccc(C(F)(F)F)cc3)ccc2O1	62*[16.7 µM]	-11
C[C@@H]1CN([C@@H](C)CO)C(=O)c2cc(NS(=O)(=O)c3ccc(Cl)cc3)ccc2O[C@H]1CN(C)Cc1ccc(Cl)c(Cl)c1	-39[16.7 µM]	21
C[C@H]1CN([C@@H](C)CO)C(=O)c2cc(NC(=O)Nc3ccc4c(c3)OCO4)ccc2O[C@H]1CN(C)CC1CCCCC1	23[16.7 µM]	3
COc1ccc(CN(C)C[C@H]2OCCCC[C@@H](C)Oc3ccc(NC(=O)Nc4ccccc4)cc3C(=O)N([C@@H](C)CO)C[C@@H]2C)cc1	-91[16.7 µM]	28
CC(C)C#Cc1ccc([C@@H]2[C@@H](C#N)N(C(=O)CN(C)C)[C@H]2CO)cc1	0[16.7 µM]	1
C[C@@H]1CN([C@@H](C)CO)C(=O)c2cccc(NS(C)(=O)=O)c2O[C@@H]1CN(C)C	1[16.7 µM]	-7
C[C@@H]1CN([C@H](C)CO)C(=O)c2cccc(NC(=O)c3ccncc3)c2O[C@H]1CN(C)Cc1ccncc1	2[16.7 µM]	-9
O=C(Nc1ccc2c(c1)[C@H]1C[C@H](CC(=O)N3CCCCC3)O[C@@H](CO)[C@H]1O2)c1ccc2c(c1)OCO2	26[16.7 µM]	1
C[C@H]1CN([C@@H](C)CO)C(=O)c2cc(C#CCN(C)C)cnc2O[C@H]1CN(C)Cc1ccccc1	-16[16.7 µM]	-3
C[C@@H]1CN([C@@H](C)CO)C(=O)c2cc(N(C)C)ccc2O[C@@H](C)CCCCO[C@@H]1CN(C)C(=O)Nc1cccc2ccccc12	8[16.7 µM]	18
COCC(=O)N(C)C[C@@H]1Oc2ncc(-c3ccc(C)cc3)cc2C(=O)N([C@H](C)CO)C[C@@H]1C	-7[16.7 µM]	0
Cc1ccc(S(=O)(=O)N(C)C[C@H]2OCCCC[C@@H](C)Oc3ccc(NS(=O)(=O)c4c(C)noc4C)cc3C(=O)N([C@@H](C)CO)C[C@@H]2C)cc1	-63[16.7 µM]	-10
C[C@H](CO)N1C[C@H](C)[C@@H](CN(C)S(=O)(=O)c2ccccc2)Oc2ccc(NS(=O)(=O)c3ccc(F)cc3)cc2CC1=O	-2[16.7 µM]	0
O=C(N[C@H]1CC[C@H](CCNS(=O)(=O)c2ccc(F)cc2)O[C@H]1CO)C1CCC1	-8[16.7 µM]	14
C[C@@H]1CN([C@H](C)CO)C(=O)c2cc(NS(C)(=O)=O)ccc2O[C@@H](C)CCCCO[C@H]1CN(C)C(=O)Nc1ccc2c(c1)OCO2	15[16.7 µM]	-11
C[C@@H]1CN([C@@H](C)CO)C(=O)c2cccc(NC(=O)Nc3ccc(C(F)(F)F)cc3)c2O[C@H]1CN(C)C(=O)NC1CCCCC1	-17[16.7 µM]	10
CN(C)CC(=O)Nc1ccc2c(c1)[C@@H]1C[C@@H](CC(=O)NCc3ccccc3)O[C@H](CO)[C@@H]1O2	-3[16.7 µM]	-7
CC(C)NC(=O)N1[C@H](C#N)[C@@H](c2ccc(C#CC3CCCC3)cc2)[C@H]1CO	5[16.7 µM]	17
CN1C(=O)c2cc(NC(=O)C3CC3)ccc2OC[C@H]2O[C@H](CC(=O)NCc3ccccc3F)CC[C@@H]21	-8[16.7 µM]	17
CN(C)C(=O)[C@@]1(Cc2ccccc2CN=[N+]=[N-])COC(c2ccc(OCCCO)cc2)=N1	14[16.7 µM]	18

An excerpt. The share of hits here may be higher or lower than overall.
